Screening data from PubChem BioAssay.
ClpP mod: qHTS Assay for Activators of ClpP; ATP-dependent Clp protease proteolytic subunit (Bacillus subtilis (strain 168)), P80244; actives 1.9% (n = 340,000); Potency, µM (top dose mostly 57.5 µM), for inactives: top-dose activity change, negative = active; AID 651965, 2013; purified B. subtilis ClpP, FRET peptide cleavage, 20 min; active = well fitted falling curve with a large enough effect; inconclusive = small, poorly fitted or top-dose-only effect; inactive = no such curve, though single readings can be large or run the other way; note: potency is the fitted concentration of half-maximal effect; the source files actives as falling curves though it sought activators and does not explain the sign; nearly all actives have a fitted effect of over 65% in size; many hits overshoot -100%
Target sequence (P80244 whole entry, looked up): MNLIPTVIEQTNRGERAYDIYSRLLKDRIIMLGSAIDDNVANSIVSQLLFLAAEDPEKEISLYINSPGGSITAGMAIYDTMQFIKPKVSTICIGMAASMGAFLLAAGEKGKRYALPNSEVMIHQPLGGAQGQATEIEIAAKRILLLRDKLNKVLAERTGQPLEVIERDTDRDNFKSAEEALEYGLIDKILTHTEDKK
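FRET quenching reversal measured ClpP activation: 10 microg/mL B. subtilis ClpP at pH 8 with the FRET-FV decapeptide, read at 430 nm after 320 nm excitation. The 20-min minus 0-min signal was scaled between DMSO/no-enzyme wells and ADEP (5.8 microM final).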
gsp antagonist: qHTS for Antagonists of gsp, the Etiologic Mutation Responsible for Fibrous Dysplasia/McCune-Albright Syndrome: qHTS | AID 624288, 2012 | gsp-mutant cells, cAMP HTRF, 30 min; control for the full effect not named in the record | Potency, µM (titrated, usually from 76.9 µM), for inactives: at the top dose activity change, negative = inhibition, actives largely listed as inhibitors | actives 0.4% (n = 340,000); active = falling curve of any shape with a large fitted effect; inconclusive = falling curve, mostly with a smaller effect; inactive = flat or rising curve; cell line not stated here;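 note: intracellular cAMP measured with PDE inhibitor Ro 20-1724 present during compound exposure; potency is the fitted concentration of half-maximal effect; % is set by controls: 0 for no effect and ±100 for the full control effect; nearly all actives have a fitted effect of over 65% in size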
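HTRF cAMP read-out (cAMP-d2 plus anti-cAMP antibody-K in lysis buffer, 30 min RT). Before lysis, cells are exposed to compounds with […] for 30 min at 37C in DPBS containing Ca/Mg, BSA and Tween 20.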
TRPML1 blocker: qHTS for Inhibitors of the Human Mucolipin Transient Receptor Potential 1 (TRPML1); Mucolipin-1 (Homo sapiens), Q9GZU1; TRPML1-inducible cells, Ca2+ dye fluorescence, FDSS; hits give low values; inhibition of EC80 agonist-evoked calcium signal; activity change, negative = inhibition, % (test concentration not listed); actives 0.02% (n = 390,000); AID 624415, 2012; in the data active means activity change below about -50%; inconclusive means about -30% to -50%; inactive means above about -30%;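 note: stimulus is agonist 54-4 at its EC80 concentration; % is set by controls: 0 for no effect and ±100 for the full control effect; compound concentration not given in the record; the text of the record puts the active cut at -80%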
Target sequence (Q9GZU1 whole entry, looked up): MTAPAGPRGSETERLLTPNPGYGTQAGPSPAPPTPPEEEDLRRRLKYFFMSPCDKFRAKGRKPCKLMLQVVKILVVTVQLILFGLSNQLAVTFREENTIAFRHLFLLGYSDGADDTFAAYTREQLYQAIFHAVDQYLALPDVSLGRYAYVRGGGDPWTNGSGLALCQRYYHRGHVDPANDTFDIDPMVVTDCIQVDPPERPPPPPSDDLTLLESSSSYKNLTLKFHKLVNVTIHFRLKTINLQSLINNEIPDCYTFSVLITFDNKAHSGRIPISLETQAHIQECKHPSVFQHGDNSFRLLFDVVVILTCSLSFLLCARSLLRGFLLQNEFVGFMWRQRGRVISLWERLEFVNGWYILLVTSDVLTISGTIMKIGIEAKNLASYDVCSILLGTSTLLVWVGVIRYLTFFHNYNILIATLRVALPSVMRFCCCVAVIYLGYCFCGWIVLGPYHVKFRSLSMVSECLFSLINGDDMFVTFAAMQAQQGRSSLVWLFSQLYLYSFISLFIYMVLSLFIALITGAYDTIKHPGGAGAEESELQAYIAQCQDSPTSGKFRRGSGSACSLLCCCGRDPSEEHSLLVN
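Tet-induced TRPML1-DL cells loaded with Ca8 no-wash calcium dye were read kinetically on FDSS. Compound addition was followed by EC80 agonist 54-4 (4 uM final); inhibition was read over 110 s.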
gsp ag: qHTS for Agonist of gsp, the Etiologic Mutation Responsible for Fibrous Dysplasia/McCune-Albright Syndrome: qHTS | gsp mutant cells, cAMP HTRF, 30 min; control for the full effect not named in the record | Potency, µM (titrated, usually from 76.9 µM), for the others: top-dose activation (cAMP increase), actives largely listed as activators | actives 0.13% (n = 340,000); active = well fitted activation curve with a large enough effect; inconclusive = small, poorly fitted or top-dose-only effect, or another doubt; inactive = no such curve, though single readings can be large or run the other way; cell line not stated here;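 note: phosphodiesterase inhibitor Ro 20-1724 added with compounds to block cAMP breakdown; potency is the fitted concentration of half-maximal effect; nearly all actives have a fitted effect of over 60% in size; about a fifth of the inactives were tested at one dose only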
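Cells in DMEM/10% FBS with G418 were pretreated with compounds in DMSO plus […] (300 uM stock) for 30 min at 37C. cAMP was measured by HTRF (cAMP-d2 plus anti-cAMP antibody-K) after 30 min at room temperature.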
Menin MLL FP FL: qHTS Assay for Inhibitors Targeting the Menin-MLL Interaction in MLL Related Leukemias: Competition With Fluorescein Labeled MLL-derived Peptide | Fluorescence polarization, fluorescein-MLL peptide displacement from menin | FP activity change, % at 61.4 µM | 290,000 tested, under 10 active; inconclusive = falling polarisation curve, or a change in total fluorescence; inactive = total fluorescence flat and polarisation flat or rising; no compound was filed as active; the % refers to the polarisation; negative = inhibition;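 note: % of control where 0% means no effect; inhibitors lower the polarisation; unlabelled MLL peptide was the positive control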
TRPML1 ag: qHTS for Agonists of the Human Mucolipin Transient Receptor Potential 1 (TRPML1). TRPML1-expressing cells, Ca2+ dye fluorescence, FDSS; host cell line not named in the record; reference of the full effect not given here. activation, % (test concentration not listed). actives 0.12% (n = 410,000). AID 624414, 2012; in the data active = activation above about 50%; inconclusive = about 30% to 50%; inactive = below about 30%; note: 0% is about no effect; the text of the record puts the active cut at 80%
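Tet-induced TRPML1-DL cells, 1,500 per well, cultured overnight, were loaded with a no-wash Ca2+ dye for 45–90 min. Calcium fluorescence was recorded on the FDSS for 110 s after compound addition, before the EC80 agonist (4 uM 54-4) was added.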
Numbers without * were called inactive; ? = inconclusive; . = not tested or not shown; & = joins results of further samples; [ ] = another dose, or the depositor's remark.

SMILES	ClpP mod	gsp antagonist	TRPML1 blocker	gsp ag	Menin MLL FP FL	TRPML1 ag
CCC(C)C(NC(=O)OC(C)(C)C)C(=O)NCc1ccco1 (configuration not stated)	-3.9%	5.8%	-6.7	-1.9%	0.0	-0.6
Cc1ccc(S(=O)(=O)Nc2ccc(N3CCOCC3)nc2)cc1	.	-7.8%	0.1	17.0%[15.4 µM]	?	-1.1
COc1ccc(-n2c(=O)c3c(C)c(C)sc3n(Cc3ccc(F)cc3)c2=O)c(OC)c1	-1.6%	6.5%	29.4&4.5	-1.5%	2.5	0.9&3.7
COc1ccc(S(=O)(=O)NCC2CCCN(C(=O)CSC)C2)cc1 (configuration not stated)	-1.6%	1.7%	-18.8	-9.1%	-1.2	0.5
Cc1ccccc1NC(=S)N1CCN(c2ccccc2Cl)CC1	-0.7%	-8.8%	26.4	5.0%[15.4 µM]	-3.8	1.5
O=c1[nH]c2ccc(NC(=S)NCCc3ccccc3)cc2[nH]1	-4.4%	11.3%	9.7	-5.1%	6.7	0.3
COc1ccc(CCNC(=O)C(=O)NCCCN2CCOCC2)cc1	3.1%	11.4%	10.3	-23.6%	3.2	0.0
Cc1cc(OCC(=O)OCC(=O)N2CCc3ccccc3C2)ccc1Cl	1.1%	15.5%	-15.3	-21.5%	.	0.7
Nc1c(-c2nc(-c3ccncc3)no2)nnn1CC(=O)Nc1ccccc1	-0.6%	.	-13.3	.	.	1.8
O=C(c1ccco1)N1CCCC(c2ccccc2)C1 (configuration not stated)	0.6%	10.1%	1.7	-13.1%	0.2	-0.5
CSC1=N/C(=C\c2ccc3c(c2)OCO3)C(=O)S1	1.6%	10.3%	13.6	15.6%	?	-0.8
CCCn1nc(NS(=O)(=O)c2cccc3nonc23)c2cc3cccc(C)c3nc21	0.3%	?	1.1	?	.	1.6
COc1cc2cnc(-c3ccccc3F)cc2cc1OC	-27.8%	5.0%	-10.2	.	.	0.3
COc1ccccc1N1CCN(S(=O)(=O)c2c(C)nc3sc(C)c(C)n3c2=O)CC1	-22.7%	.	-6.5	.	.	-0.2
O=C(NNC(=O)[C@@H]1CCCC[C@@H]1C(=O)O)Nc1ccccc1	1.3%	11.6%	-8.5	12.5%	1.4	-0.3
O=C1[C@@H]2[C@@H]3C[C@@H]([C@H]4ON=C(c5ccc(Cl)cc5)[C@@H]34)[C@@H]2C(=O)N1c1ccc2c(c1)OCO2	-9.3%	1.1%	7.3	12.4%	4.6	0.1
Cc1nc2c(C(=O)N3CCCCC3)cnn2c(C)c1Cc1ccccc1F	-6.7%	12.2%	12.3	6.7%	0.8	-0.3
O=C1N(c2ccccc2)C[C@@H]2C[C@@H](c3cc4ccccc4o3)N3CCC[C@@]123	.	2.6%	39.5	-6.5%[15.4 µM]	-5.9	1.4
Cc1ccccc1-c1nnc(SCC(=O)NC2CCS(=O)(=O)C2)n1C (configuration not stated)	-1.6%	7.4%	-11.7	12.3%	.	0.5
COc1cc(-c2ccc3oc(-c4ccsc4)cc3c2)cc(OC)c1OC	4.5%	-6.5%	22.1	?	.	1.7
CC(Sc1ncnc2c1cnn2-c1ccccc1)C(=O)NCC1CCCO1 (configuration not stated)	-2.8%	-8.6%	5.3	29.6%	.	-0.7
COc1ccccc1N1CCN(CCCNC(=O)c2nnc(Cc3ccc(F)cc3Cl)o2)CC1	-3.1%	.	11.6	.	.	1.2
CCOC(=O)c1ccc(NC(=O)CSc2nnc3c4ccccc4n(CC)c3n2)cc1	1.5%	.	25.8	.	.	0.9
CC/C(=N\NC(=O)c1ccc2c(c1)OCO2)c1ccccc1	0.4%	3.2%	-2.6	-3.2%	0.8	-0.6
O=C(Nc1cccc(Cl)c1)C1CCN(S(=O)(=O)Cc2ccccc2)CC1	0.7%	.	22.5	.	.	-0.5

New compounds follow
SMILES	ClpP mod	gsp antagonist	TRPML1 blocker	gsp ag	Menin MLL FP FL	TRPML1 ag
COc1ccccc1N(CC(=O)Nc1ccccc1C(F)(F)F)S(=O)(=O)c1cccs1	2.5%	-13.6%	13.6	5.0%	.	0.1
O=C(O)CCn1c(Cc2ccccc2)nc2ccccc21	1.0%	-4.5%	28.9	2.9%[15.4 µM]	-1.0	0.3
Cc1cccc(N=Nc2c(C)nn(-c3ccccc3)c2N)c1C	-2.8%	2.3%	6.7	-5.8%	3.8	1.4
CCCCOCCCNC(=O)c1ccc(NC(C)=O)cc1	-1.8%	3.0%	2.7	8.0%	2.6	0.6
CCOc1ccc(Cn2c(CNS(=O)(=O)c3cccc(Cl)c3)nc3cccnc32)cc1	1.1%	.	24.2	.	.	2.2
NC(=O)c1ccsc1NC(=O)COC(=O)c1ccc(Cl)nc1	-5.2%	4.1%	-4.1	24.7%	.	-0.3
CNC(C)c1ccc(S(N)(=O)=O)cc1 (configuration not stated)	.	9.8%	3.5	?	-0.2	0.2
CC(C)N(C)S(=O)(=O)c1ccc(NC(=O)CSC(=S)N2CCCC2)cc1	-1.6%	3.2%	-8.4	-11.9%	.	0.0
O=C(NCc1ccc(F)cc1)C1CCN(C(=O)NCc2ccccc2)CC1	0.0%	8.9%	13.8	9.7%	3.5	-0.5
O=C(NNc1cccc(Cl)n1)c1ccc(Cl)cc1Cl	-1.5%	5.1%	-0.5	-3.9%	4.2	-0.3
Cn1c(O)c(N=NC(=O)CNC(=O)c2cccnc2)c2ccccc21	0.9%	?	1.2	21.3%	.	-0.3
c1ccc(-c2nnc(N3CCOCC3)nc2-c2ccccc2)cc1	1.6%	6.5%	26.7	17.8%	0.0	1.1
O=C(CCCCCCCC(=O)NNC(=O)Nc1ccccc1)NNC(=O)Nc1ccccc1	-0.1%	11.7%	11.7	-11.9%[15.4 µM]	?	-0.2
CC1(C)CC(OC(=O)c2ccccc2)CC(C)(C)N1	-2.2%	-1.6%	0.7	24.8%	-1.6	0.9
CCC(=O)Nc1nnc(-c2ccco2)o1	-9.9%	2.7%	18.4	-4.3%	0.4	-0.5
CCSc1nnc(NC(=O)C2CCCN(C(=O)c3ccc(Cl)cc3)C2)s1 (configuration not stated)	4.4%	.	15.9	5.8%	.	-0.2
Cn1c(CN2CCC(C(N)=O)CC2)c(C#N)c2ccccc21	-12.7%	7.9%	-11.3	-36.9%[inhibitor]	4.7	1.7
Cc1ccc(C)c(N2CCN(c3nc4c(S(=O)(=O)c5ccccc5)nnn4c4ccc(Cl)cc34)CC2)c1	-1.9%	.	2.9	.	.	-0.2
Cc1ccc(C)c(N(C(=O)c2snc(C(N)=O)c2N)C(C(=O)NCC2CCCO2)c2ccc(C)o2)c1 (configuration not stated)	0.4%	-15.0%	14.8	-5.9%[15.4 µM]	-1.2	-1.8
CC(C)CCNC(=O)NC(=O)COC(=O)CCN=C1NS(=O)(=O)c2ccccc21	.	5.5%	-3.1	27.7%	-1.2	0.0
C=CCNC(=S)Nc1ccc(Cl)cc1F	-1.8%	2.1%	19.6	-30.3%[inhibitor]	-5.1	4.3
Cc1cc(-c2onc(C)c2C(=O)Nc2ccc(C(F)(F)F)cc2)no1	.	0.0%	-3.7	15.6%[15.4 µM]	1.3	0.7
Cc1c(Br)c(O)c(Br)c(O)c1/C=N/n1c(-c2ccccc2)n[nH]c1=S	.	-13.0%	12.5	1.0%[15.4 µM]	0.2	0.7
O=C1CN(C(=O)COc2ccc([N+](=O)[O-])cc2Cl)c2ccccc2N1	-6.4%	-5.0%	11.6	-19.2%	.	-0.7
COc1ccc(-c2cc3c(=O)n(CC(=O)NCc4ccc(C)cc4)ncn3n2)cc1	-7.1%	1.9%	-3.7	-19.5%	1.6	-0.2

(next part)
SMILES	ClpP mod	gsp antagonist	TRPML1 blocker	gsp ag	Menin MLL FP FL	TRPML1 ag
Oc1ccc(C(c2nnnn2C2CCCC2)N2CCc3ccccc3C2)cc1 (configuration not stated)	-0.8%	-8.0%	-0.7	14.3%	1.5	0.3
COc1ccc(NC(=O)CSc2nc(-c3ccco3)cc(C(F)(F)F)n2)c(OC)c1	-2.3%	.	-2.4	.	.	-0.5
Cc1cccc(N(CC(=O)Nc2ccc(CC#N)cc2)S(C)(=O)=O)c1	2.0%	7.8%	10.4	-6.2%[15.4 µM]	4.8	0.3
Cc1ccc(S(=O)(=O)Nc2cc3c(cc2C#N)OCO3)cc1C(N)=O	.	4.7%	-4.8	23.6%	-3.5	0.0
Cc1cc2cc(CNC(=O)Nc3ccccc3)ccc2n1C	-7.6%	5.9%	5.0	?	-0.8	0.7
CC(=O)N1CCN(C(=O)COc2ccc(N(C)S(=O)(=O)c3cccs3)cc2)CC1	1.6%	-1.4%	10.5	-7.3%	-5.0	0.5
COc1ccc(C)cc1S(=O)(=O)N(C)CC(=O)N1CCC(C)CC1	-1.2%	-5.4%	-8.7	-17.4%	-0.2	-0.3
Cc1ccc(N2C(=O)CC(NNc3nc4ccccc4s3)C2=O)cc1 (configuration not stated)	-0.3%	-0.5%	6.8	-15.6%	3.0	0.4
O=C(COc1ccc(F)cc1)Nc1ccc2c(c1)OCCO2	-1.3%	-2.0%	-3.9	?	-6.2	0.8
CCOc1ccccc1N=Nc1c(C)[nH]n(-c2ccccc2)c1=O	-0.4%	10.0%	52.1	1.2%	1.8	0.5
NNC(=O)c1cc2cc(Oc3ccccc3)ccc2[nH]1	0.5%	5.6%	-5.5	6.2%[15.4 µM]	0.1	-0.7
CN(C)CC1CCC/C(=C\c2ccc(OC(=O)/C=C/c3ccccc3)cc2)C1=O (configuration not stated)	1.5%	-1.0%	-4.7	-21.6%	.	0.0
COc1ccc(C2CC(c3ccccc3)Oc3cc(C)cc(C)c32)cc1 (configuration not stated)	.	.	-12.9&-6.8	.	-4.7&-0.6	1.2&0.9
CC(C)(C)OC(=O)NCCCCCNC(=O)c1nc[nH]c1C(=O)NCC(=O)OCc1ccccc1	-4.3%	-8.1%	4.1	3.7%	.	2.3

A stretch taken from the entries so far, for reference:
SMILES	ClpP mod	gsp antagonist	TRPML1 blocker	gsp ag	Menin MLL FP FL	TRPML1 ag
CN(C)CC1CCC/C(=C\c2ccc(OC(=O)/C=C/c3ccccc3)cc2)C1=O (configuration not stated)	1.5%	-1.0%	-4.7	-21.6%	.	0.0
COc1ccc(C2CC(c3ccccc3)Oc3cc(C)cc(C)c32)cc1 (configuration not stated)	.	.	-12.9&-6.8	.	-4.7&-0.6	1.2&0.9
CC(C)(C)OC(=O)NCCCCCNC(=O)c1nc[nH]c1C(=O)NCC(=O)OCc1ccccc1	-4.3%	-8.1%	4.1	3.7%	.	2.3
